High-throughput results (PubChem)
Mtb growth: M. tuberculosis H37Rv growth inhibitors, H37Rv strain (AID 1626) | M. tuberculosis H37Rv growth inhibition; higher % means a stronger effect | inhibition, % at 10 µM, or IC50 in µM where a hit was titrated | 220,000 tested, 0.95% active;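 active = confirmed in a dose series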;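 note: bacteria incubated seven days before Alamar blue readout; 0% = bacteria only wells and 100% = bacteria with antibiotic wells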
Arbovirus anti: arbovirus infection inhibition. arbovirus infection cell-based antiviral screen. inhibition, % at 10 µM. 200,000 tested, 0.37% active;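 active = inhibition from about 30%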;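 note: bluetongue infection of BSR cells; cell survival read as ATP light after 72 h; 0% = infected wells without compound and 100% = uninfected wells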
Mtb bLac sens: beta-lactam sensitization of Mtb H37Rv. M. tuberculosis H37Rv growth with meropenem, percent inhibition; hits of this screen are not shown here. inhibition, % at 25 µM. 330,000 tested, 0.27% active. AID 434955;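 active = about 74% or more and at least 40 points above the plate without the antibiotic, then above 30% in a dose series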;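 note: growth measured after seven days incubation then overnight dye step; 0% = bacteria only wells and 100% = bacteria with antibiotic; twin plates without the antibiotic show which effects depend on it; some results filed as inactive read as strong as hits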
RecA splice inh: inhibitors of M. tuberculosis RecA intein splicing. P9WHJ3. cell-free RecA intein splicing, fluorescence. inhibition, %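 (about 9 µM by stock and volumes)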. 290,000 tested, 0.75% active. AID 2221; in the data active = inhibition above about 30%;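 note: 0% = vehicle wells and 100% = reference inhibitor control wells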
Target sequence (P9WHJ3 whole entry, looked up, canonical isoform): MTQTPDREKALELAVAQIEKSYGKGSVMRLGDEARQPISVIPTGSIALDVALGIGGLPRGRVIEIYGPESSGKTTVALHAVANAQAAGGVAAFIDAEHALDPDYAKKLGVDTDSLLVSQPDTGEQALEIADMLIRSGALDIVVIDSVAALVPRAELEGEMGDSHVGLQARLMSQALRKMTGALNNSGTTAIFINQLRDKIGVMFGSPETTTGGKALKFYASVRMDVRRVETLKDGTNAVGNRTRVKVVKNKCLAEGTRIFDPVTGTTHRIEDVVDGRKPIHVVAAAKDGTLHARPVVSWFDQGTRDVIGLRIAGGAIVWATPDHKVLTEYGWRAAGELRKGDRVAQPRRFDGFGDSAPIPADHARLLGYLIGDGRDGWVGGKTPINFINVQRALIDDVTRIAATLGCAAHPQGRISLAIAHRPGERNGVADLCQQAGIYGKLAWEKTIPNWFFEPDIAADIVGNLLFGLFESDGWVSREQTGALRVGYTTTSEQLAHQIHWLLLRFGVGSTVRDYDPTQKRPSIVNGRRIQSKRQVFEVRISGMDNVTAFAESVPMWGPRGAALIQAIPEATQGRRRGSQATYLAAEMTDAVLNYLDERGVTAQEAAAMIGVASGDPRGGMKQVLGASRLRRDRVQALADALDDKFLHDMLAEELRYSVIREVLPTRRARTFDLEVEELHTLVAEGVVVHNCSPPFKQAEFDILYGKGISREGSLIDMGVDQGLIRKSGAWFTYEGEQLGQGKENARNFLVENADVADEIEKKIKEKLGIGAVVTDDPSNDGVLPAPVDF
YopH inh: blocks Yersinia enterocolitica YopH tyrosine phosphatase | inhibition, %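 (about 10 µM by stock and volumes)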 | 140,000 tested, 0.16% active | fluorescence Ex485/Em525 | AID 898;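 active = inhibition of 50% or more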;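 note: controls were vehicle for no effect and minimum signal wells for full effect; inactives centre near -20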
Arbovirus anti repeat: further read-out of Arbovirus anti, marked with its call; inhibition, %; measured here: 10K subset replicate screen; many hits read low in the repeat;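 first of two repeat runs on a subset; 0% = infected and 100% = uninfected wells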
Starred values were filed as active, the others as inactive; . = not tested or not shown. This is a subset, so the mix of outcomes need not match the whole.

SMILES | Mtb growth | Arbovirus anti | Mtb bLac sens | RecA splice inh | YopH inh | others
NNC(=O)c1nn(-c2ccccc2)cc1O | -5.9% | 1.5 | 79.9 | -2.1 | .
Cc1cccc(C)c1NC(=S)N(Cc1cccnc1)Cc1ccccc1Cl | 0.6% | -5.3 | -3.6 | 2.6 | .
CCCNc1c(NC(=O)COc2ccc(Cl)cc2)c(=O)oc2ccccc12 | . | . | 0.2 | 1.4 | .
COc1ccc(OC)c(NC(=O)CCN2CCC(C)CC2)c1 | 4.3% | 2.5 | -0.6 | 2.1 | -96.3
CC(C)CCNC(=O)CCSCCC(=O)NCCC(C)C | -5.9% | -7.0 | 5.6 | 0.1 | -40.5
COc1ccc(CCC(C)NCc2ccc(C(F)(F)F)cc2)cc1 (stereo not drawn) | . | . | -3.9 | -0.3 | .
O=C(c1ccc(Cl)c([N+](=O)[O-])c1)N(Cc1ccco1)C1CCS(=O)(=O)C1 (stereo not drawn) | . | . | 0.7 | -0.2 | .
O=C(O)c1ccccc1-c1ccccc1C(=O)Nc1ccc(-c2nc3cc(Cl)ccc3o2)cc1 | 10.6% | . | 56.1 | 35.7* | .
CCOC(CNC(=O)c1ccc2nc(N3CCC(C)CC3)sc2c1)OCC | -5.1% | 6.6 | -6.4 | 1.8 | -2.9
CCOC(=O)CN1C(=O)C(=O)N(Cc2c(C)cc(C)cc2C)C1=O | . | . | 5.1 | -2.4 | .
COc1ccc(C(=O)c2c[nH]c(C(=O)NCC3CCCO3)c2)cc1 (stereo not drawn) | -3.4% | 1.9 | 12.3 | 0.1 | -20.0
CCOCCCNC(=O)Cc1ccc(F)cc1 | -10.2% | -1.1 | 5.4 | -2.9 | -16.2
CSCC[C@H](N)C(=O)N1CCC(C(=O)N[C@H](C)C(=O)Nc2ccc(C(C)C)cc2)CC1 | . | . | 2.8 | -2.2 | .
Cc1cc(C2=NNC(=NCCc3ccccc3)SC2)c(C)n1-c1c(C)n(C)n(-c2ccccc2)c1=O | 14.6% | . | 0.1 | 2.0 | .
COc1ccc(-c2nnn(CC(=O)c3ccccc3)n2)cc1OC | -0.6% | -1.6 | -1.2 | -2.3 | -29.2
CCCNC(=O)COC(=O)/C(C#N)=C/c1cc(C)n(CCC)c1C | -2.0% | 10.8 | 0.0 | -1.8 | .
CC(=O)OC1(c2ccccc2)CCN(C)C(C)C1C (stereo not drawn) | -1.0% | 7.2 | -22.3 | -2.8 | 12.6
CCOC(=O)C(=O)N=Nc1c(O)n(C)c2ccccc12 | -3.5% | 3.6 | -2.6 | 2.7 | .
CSc1ccccc1C(=O)Nc1cccc(C(C)O)c1 (stereo not drawn) | -2.5% | -0.9 | -6.1 | -0.1 | -52.1
COc1cc(CCCN2C(N)=NC[C@@H]2Cc2ccc(O)cc2)cc(OC)c1OC | -10.4% | . | -5.9 | -1.7 | .
COc1ccccc1CNC(=O)c1ccc(NC2=NC3CS(=O)(=O)CC3S2)cc1 (stereo not drawn) | . | . | -7.2 | -1.2 | .
COc1ccc(CNC(=O)CN(Cc2ccccc2)S(=O)(=O)c2ccc(Cl)cc2)cc1 | -6.6% | -2.6 | -6.9 | -0.1 | -16.0
CCOC(=O)N1CCN(Cc2ccc(OCC(O)CN3CCCCC3)cc2)CC1 (stereo not drawn) | . | . | 6.2 | -1.2 | .
CCOC(=O)N1CCN(C(=O)Cn2nc(C)n3nc(-c4ccc(OC)cc4)cc3c2=O)CC1 | . | . | 2.0 | 3.1 | .
O=C(CCNC(=O)c1ccc(Br)cc1)Nc1ccccc1N1CCCC1 | . | . | -15.3 | -0.6 | .

Reprinted at random: 4 entries already listed
SMILES | Mtb growth | Arbovirus anti | Mtb bLac sens | RecA splice inh | YopH inh | others
CC(=O)OC1(c2ccccc2)CCN(C)C(C)C1C (stereo not drawn) | -1.0% | 7.2 | -22.3 | -2.8 | 12.6
COc1ccc(CCC(C)NCc2ccc(C(F)(F)F)cc2)cc1 (stereo not drawn) | . | . | -3.9 | -0.3 | .
CCOC(=O)N1CCN(C(=O)Cn2nc(C)n3nc(-c4ccc(OC)cc4)cc3c2=O)CC1 | . | . | 2.0 | 3.1 | .
COc1ccc(-c2nnn(CC(=O)c3ccccc3)n2)cc1OC | -0.6% | -1.6 | -1.2 | -2.3 | -29.2

Additional structures follow:
SMILES | Mtb growth | Arbovirus anti | Mtb bLac sens | RecA splice inh | YopH inh | others
CCn1c(SCc2cc(=O)n3ccsc3n2)nc2ccccc21 | -12.7% | 0.7 | 0.1 | -1.2 | .
COc1cccc(CN(C(=O)c2ccccc2Br)C2CCS(=O)(=O)C2)c1 (stereo not drawn) | . | . | -6.8 | 4.5 | .
O=C1C(C2=NC(c3ccccn3)C3C(=O)N(c4ccc(OC(F)(F)F)cc4)C(=O)C23)=C(O)c2ccccc21 (stereo not drawn) | -4.1% | . | 26.8 | -3.2 | .
CCN(C(=O)CSc1nnc(-c2c[nH]c3ccccc23)o1)C1CCS(=O)(=O)C1 (stereo not drawn) | 6.2% | -0.4 | -5.8 | 2.8 | .
COc1ccc(CN2C(=O)C(=O)N(CC(N)=O)C2=O)cc1 | -1.1% | -1.4 | -6.3 | -3.4 | .
Cc1cc(-c2ccccc2)nc(N/N=C/c2cccnc2)n1 | -8.5% | -8.1 | 6.0 | -1.4 | .
Cc1cc(NC(=O)CSc2nnc(-c3cccs3)n2N)no1 | -4.5% | 7.8 | -5.7 | 2.6 | -75.3
CNC(=O)c1ccsc1NC(=O)c1ccc(S(=O)(=O)N2CCc3ccccc32)cc1 | 14.5% | -5.8 | -7.7 | 3.9 | -21.8
CCn1c2ccccc2c2cc(NC(=O)c3ccco3)ccc21 | 7.3% | -8.8 | 9.6 | -2.4 | -28.9 | Arbovirus anti repeat=-7.2
O=C(C1CC1)N1N=C(C2CCCCC2)CC1(O)C(F)(F)F (stereo not drawn) | 1.7% | 3.5 | 1.6 | -1.4 | .
CCn1c(=O)c2cc(C(=O)N(C)c3cc(C)ccc3OC)sc2c2ccccc21 | -10.6% | . | -10.4 | 0.5 | .
Cc1oc(S(=O)(=O)N(C)C)cc1C(=O)Nc1ccc(F)cc1 | -2.6% | . | -0.6 | 0.3 | .
CN(C)S(=O)(=O)c1cccc(NC(=O)CN2C(=O)NC(Cc3c[nH]c4ccccc34)C2=O)c1 (stereo not drawn) | 3.5% | -2.8 | -1.5 | 3.2 | .
Cc1ccccc1OCCC(=O)N1CCN(S(=O)(=O)c2ccc(F)cc2)CC1 | . | . | -17.3 | -2.8 | .
CC(C)c1ccc(NC(=O)C(c2ccccc2)N(Cc2ccco2)C(=O)CC2NC(=O)NC2=O)cc1 (stereo not drawn) | -7.1% | -12.0 | 2.5 | 2.6 | .
Cc1ccc2c(c1)/C(=C/c1ccccc1C)C(=O)N2 | . | . | 13.4 | 1.7 | .
COC(=O)c1sc(S(=O)(=O)NCCCN(C)C)c(C(=O)OC)c1C | -0.2% | 5.8 | 1.2 | 0.4 | .
OCc1cc(Br)ccc1OCc1nc2ccccc2s1 | . | . | 2.7 | -1.2 | .
CC(CCn1cccn1)NC(=O)CCc1nnc(CCc2ccccc2)o1 (stereo not drawn) | -7.7% | -2.9 | 0.6 | 36.9* | .
Nc1nc(SCC(=O)C23CC4CC(CC(C4)C2)C3)n[nH]1 | 3.9% | -8.5 | -4.3 | -0.2 | -43.4
CC(C)(C)OC(=O)NCCCCCc1nnc(SCc2cccc(F)c2)o1 | 75.0% | . | 91.0 | 1.0 | .
O=C(NCC(=O)N1CCCC(C(F)(F)F)C1)c1ccc(Br)o1 (stereo not drawn) | . | . | 0.8 | 0.6 | .
O=C(CSc1nnc(-c2ccc(Cl)cc2)o1)N1CCOCC1 | . | . | 6.7 | 0.0 | .
Cc1nn(C)c(C)c1NC(=S)Nc1ccc(S(=O)(=O)Nc2ncccn2)cc1 | . | . | -2.7 | -2.4 | .
COc1ccc(Br)cc1CN(C)CC(=O)Nc1ccccc1Cl | 4.7% | -5.0 | 2.9 | 12.2 | -23.4
(listing goes on)
SMILES | Mtb growth | Arbovirus anti | Mtb bLac sens | RecA splice inh | YopH inh | others
O=C(CN1CCCC1=O)NC1(C(F)(F)F)NC(=O)N(Cc2ccccc2)C1=O (stereo not drawn) | 1.6% | 0.7 | -0.8 | -2.2 | 10.4
CC(C)=CCc1c(-c2ccc(O)cc2O)oc2cc3c(c(O)c2c1=O)C=CC(C)(C)O3 | -2.5% | . | -0.1 | -1.8 | .
COc1cccc(C2NC(=O)c3sc(=S)n(-c4ccccc4)c3N2)c1 (stereo not drawn) | -2.9% | -6.5 | -1.4 | -8.9 | -23.5
Cc1ccc(-n2nnnc2SCC(=O)N2CCc3ccccc3C2)c(C)c1 | -1.3% | 1.8 | 8.8 | 7.6 | -8.4
O=C1CCCN1c1ncc(S(=O)(=O)c2ccc([N+](=O)[O-])cc2)s1 | -1.9% | 4.7 | 4.8 | -0.8 | .
O=C(CCl)N1CCN(CC(=O)N2CCCC2)CC1 | . | . | 6.1 | 2.2 | .
O=C(c1ccco1)N1CCN(Cc2cc(=O)c(OCc3c(F)cccc3Cl)co2)CC1 | . | . | -7.0 | 1.2 | .
COc1cccc(CN(C)CC2CCCN(CCc3ccc(Cl)cc3)C2)c1OC (stereo not drawn) | . | . | 0.1 | 4.9 | .
CCOc1ccc(-n2cc(-c3ccccc3)c3c(=S)nc[nH]c32)cc1 | . | . | 11.9 | 3.6 | .
Cc1ccc(-c2ocnc2C(=O)Nc2ccccc2NC(=O)c2ccccn2)cc1 | . | . | -0.2 | 6.0 | .
COc1cccc(NC(=O)c2ccc3c(O)c(S(=O)(=O)c4ccccc4)c(=O)[nH]c3c2)c1 | . | . | 0.0 | 1.3 | .
CC(C)CCN=Cc1c(O)n(-c2ccccc2)c(=O)c2ccccc12 | 13.7% | -8.4 | 2.6 | 0.7 | -4.0
CCN(CC(=O)Nc1ccc(NC(C)=O)cc1)C(=O)/C=C/c1cn(-c2ccccc2)nc1-c1ccc(F)cc1 | . | . | 4.8 | -1.8 | .
CSCCC1C(C#N)=C(N)Oc2n[nH]c(-c3cccs3)c21 (stereo not drawn) | 2.1% | -7.2 | 22.8 | 84.9* | -1.5
Cc1cccc(NC(=O)CN(C)S(=O)(=O)c2ccc(-c3ccc(=O)[nH]n3)s2)c1C | . | . | -6.0 | -4.4 | .
COCCN(C(=O)CCC(=O)Nc1cc(C)on1)C(C(=O)NC1CCCC1)c1ccc(C)cc1 (stereo not drawn) | . | . | -10.6 | 2.1 | .
S=C1NC(C23CC4CC(CC(C4)C2)C3)=CC(c2ccc3c(c2)OCO3)N1 (stereo not drawn) | 3.9% | 2.5 | -7.0 | 4.3 | .
Cc1ccccc1OCCCc1c(C)n[nH]c1C | 33.0% | 6.7 | 89.6 | 6.4 | .
COC(c1ccccc1)c1nnc(CCC(=O)N2CCN(C3CCCC3)CC2)o1 (stereo not drawn) | . | . | -8.1 | -0.6 | .
c1ccc2c(c1)Cc1cc(CN3CCOCC3)ccc1-2 | 1.2% | -6.2 | -1.0 | -2.8 | -30.7 | Arbovirus anti repeat=2.0
CCn1nc(C)c(CN2CCC(n3nccc3NC(=O)c3ccccc3OC)CC2)c1C | . | . | -2.5 | -0.3 | .
CCc1cc(=O)oc2c(CN3CCN(C)CC3)c(O)ccc12 | . | . | -4.2 | -42.5 | .
CC(=O)Nc1ccc(NC(=O)C(C)OC(=O)/C=C/c2ccc3c(c2)OCO3)cc1 (stereo not drawn) | . | . | -0.6 | -2.8 | .

Sorted by length of the SMILES (largest number first): five of the compounds above.
SMILES | Mtb growth | Arbovirus anti | Mtb bLac sens | RecA splice inh | YopH inh | others
COCCN(C(=O)CCC(=O)Nc1cc(C)on1)C(C(=O)NC1CCCC1)c1ccc(C)cc1 (stereo not drawn) | . | . | -10.6 | 2.1 | .
CC(=O)Nc1ccc(NC(=O)C(C)OC(=O)/C=C/c2ccc3c(c2)OCO3)cc1 (stereo not drawn) | . | . | -0.6 | -2.8 | .
COc1cccc(C2NC(=O)c3sc(=S)n(-c4ccccc4)c3N2)c1 (stereo not drawn) | -2.9% | -6.5 | -1.4 | -8.9 | -23.5
Cc1ccc(-n2nnnc2SCC(=O)N2CCc3ccccc3C2)c(C)c1 | -1.3% | 1.8 | 8.8 | 7.6 | -8.4
O=C(CCl)N1CCN(CC(=O)N2CCCC2)CC1 | . | . | 6.1 | 2.2 | .
